VDR inhibitor: Inhibitors of the vitamin D receptor (VDR): qHTS; Vitamin D3 receptor (Homo sapiens), P11473; VDR-SRC2-3 peptide fluorescence polarization, 2 h; Potency, µM, inactives show max response, negative = inhibition, hits mostly inhibitors; 400,000 compounds, 0.93% hits; AID 504847, 2011; active = well fitted inhibition curve with a large enough effect; inconclusive = small, poorly fitted or top-dose-only effect, or another doubt; inactive = no such curve, though single readings can be large or run the other way; note: series mostly up to about 120 µM
Target sequence (P11473 whole entry, looked up): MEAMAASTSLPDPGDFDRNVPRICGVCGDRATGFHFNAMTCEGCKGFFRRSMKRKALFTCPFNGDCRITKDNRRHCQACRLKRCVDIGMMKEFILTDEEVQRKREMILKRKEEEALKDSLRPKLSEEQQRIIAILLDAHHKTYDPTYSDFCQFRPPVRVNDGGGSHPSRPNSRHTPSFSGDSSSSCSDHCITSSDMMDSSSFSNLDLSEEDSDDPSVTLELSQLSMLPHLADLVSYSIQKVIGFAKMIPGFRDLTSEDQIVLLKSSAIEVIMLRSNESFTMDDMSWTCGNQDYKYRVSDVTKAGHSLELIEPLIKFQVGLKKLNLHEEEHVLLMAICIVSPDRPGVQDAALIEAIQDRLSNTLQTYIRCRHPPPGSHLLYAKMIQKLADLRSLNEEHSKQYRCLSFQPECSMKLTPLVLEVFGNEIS
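FP read-out; VDR + SRC2-3 coactivator peptide; 23 nl compound by pintool; 2 h RT incubation; reagents held at 4 deg C, protected from light.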
The depositor's hits bear a star; ? = inconclusive; & = joins results of further samples. % is set by controls: 0 for no effect and ±100 for the full control effect; potency is the fitted concentration of half-maximal effect. Not all compounds are listed; the hit share may differ from the screen's.

SMILES | VDR inhibitor
O=C(c1cc2ccccc2oc1=O)N(Cc1ccc2c(c1)OCO2)Cc1ccco1 | 12%
CSc1nc(C)cc(Nc2cccc(C(=O)O)c2)n1 | 6%
COc1ccc(C(=O)Nc2nnc(S(=O)(=O)N(C)c3ccc(Cl)cc3)s2)cc1OC | -2%
Cc1cccc(C2CC(=O)Oc3c2c(=O)n(C)c2ccccc32)c1 (centres undefined) | 1%
CS(=O)(=O)N1CCC(C(=O)NCc2ccco2)CC1 | -3%
Cc1c(C(=O)NN2CCOCC2)nn(-c2ccc(Cl)cc2Cl)c1-c1ccc(I)cc1 | -14%&-1%
O=C(Nc1ccccc1Br)C1CCCN1S(=O)(=O)c1cccc2nsnc12 (centres undefined) | -7%
Cc1ccccc1OCC(=O)OCC(=O)c1ccc(OCc2ccccc2)cc1 | -10%
NC(=O)C1CCN(C(=O)CSc2nc(O)cc(=O)[nH]2)CC1 | 5%
CC[C@H](C)[C@@H](C(=O)NCCCCCCCCCCC(=O)N1CCNCC1)n1cc(CCCCCN)nn1 | 12%
Cc1cc(=O)oc2cc(OCC(=O)OC(C)C(=O)NC3CCCC3)ccc12 (centres undefined) | 7%
N#Cc1ccc(Oc2ccc(C(N)=O)cc2)cc1C#N | -18%
C/C=C(/C)C(=O)Nc1cccc(C2=NOC3(C2)C[C@@H](C(N)=O)N(C(=O)[C@H]2CCC(=O)N2)C3)c1 (some centres undefined) | 10%
COc1ccc(C(=O)N[C@H](C(=O)Nc2nc3c(s2)CCCC3)C(C)C)cc1 | -5%
CCOC(=O)/C=C/C(=O)OCC(=O)Nc1ccc(OC)c(Cl)c1 | 79µM*
CC(C)Cn1c(CN2CCN(c3cccc(Cl)c3)CC2)nc2c1c(=O)[nH]c(=O)n2C | -10%
CSc1ccc(S(=O)(=O)N2CCC(C(=O)Nc3ccc(NC(C)=O)cc3)CC2)cc1 | 12%
COC(=O)C1CCN(C(=O)CCC2CCCCC2)CC1 | -1%
O=C(OCC(=O)c1ccccc1Cl)c1cnccn1 | 2%
CCOc1ccc(OCC(=O)OC(C)C(=O)NC2CCCCC2C)cc1 (centres undefined) | 0%
COc1ccccc1CNc1ccnc(-c2ccccc2CN(C)C)n1 | -2%
COCCOC(=O)c1c(C)oc2ccc(OC(=O)COc3c(F)c(F)c(F)c(F)c3F)cc12 | -12%
O=C(CSCc1nc2ccccc2[nH]1)Nc1ccc(Oc2ccccc2)cc1 | -9%
Cc1ccc2cc(CN(Cc3ccco3)C(=O)c3cccs3)c(=O)[nH]c2c1 | -20%
Cc1cc(CNC(=O)CC2C(=O)NCCN2Cc2ccccc2)nn1C (centres undefined) | 5%

Three consecutive compounds from above:
SMILES | VDR inhibitor
Cc1c(C(=O)NN2CCOCC2)nn(-c2ccc(Cl)cc2Cl)c1-c1ccc(I)cc1 | -14%&-1%
O=C(Nc1ccccc1Br)C1CCCN1S(=O)(=O)c1cccc2nsnc12 (centres undefined) | -7%
Cc1ccccc1OCC(=O)OCC(=O)c1ccc(OCc2ccccc2)cc1 | -10%

Other compounds
SMILES | VDR inhibitor
Cc1nc(NCc2ccccc2)[nH]c(=O)c1CCC(C)C | 10%
Cc1ccc(C2CC(=O)c3cnc(NC(=O)c4ccco4)nc3C2)cc1 (centres undefined) | 6%
CCn1c(SCC(=O)N/N=C\c2ccccc2OCC(=O)O)nnc1-c1ccc(Cl)cc1 | -4%
O=C(Nc1ccc(N2CCC(N3CCCCC3)CC2)c(C(=O)O)c1)c1ccc(Br)cc1 | 7%
c1ccc(C[n+]2ccc3ccccc3c2)cc1 | -13%
O=C(CSc1ccc2nnc(-c3ccccc3)n2n1)N1CCCCC1 | 1%
CC(=O)Nc1ccc(SCC(=O)Nc2ccc3c(c2)OCCO3)cc1 | ?
CCOc1ccc(C(=O)N/N=C/c2cc([N+](=O)[O-])cs2)cc1 | -18%
Cc1ccc(S(=O)(=O)Nc2ccc3c(c2)OCCO3)c(C)c1NS(C)(=O)=O | 30%
Cc1cc(C(=O)CCC(=O)NC(C)c2ccc(S(N)(=O)=O)cc2)c(C)s1 (centres undefined) | -14%
Cc1nc(N2CCOCC2)c(C#N)c(C)c1Br | -10%
N=c1n(Cc2ccccc2)c2ccccc2n1CC(O)c1ccco1 (centres undefined) | 7%
Cc1ccccc1NC1=NC(=S)N(c2ccccc2)C12CCCCC2 | -24%
O=C(NNS(=O)(=O)c1ccc(Cl)cc1)c1cnn(-c2ccccc2)c1-n1cccc1 | -7%
C/C(=N\Nc1ncc(Cl)cc1Cl)c1ccc2c(c1)OCO2 | -21%
CN(C)S(=O)(=O)c1ccc(N2CCOCC2)c(C(=O)O)c1 | 0%
Nc1cc2ccccc2oc1=O | -10%
NC(=O)C1CCN(CCC(=O)Nc2ccc(F)c(F)c2)CC1 | -9%
CCn1c(-c2cccnc2Cl)nc2ccccc21 | -6%
Cc1ccc2c(C)c(C(=O)N(Cc3ccccc3)C3CCS(=O)(=O)C3)oc2c1 (centres undefined) | -17%
CC(C)(C)OC(=O)N1O[C@H]2C[C@@H]1[C@@H]1[C@@H]2N=NN1C12CC3CC(CC(C3)C1)C2 | -3%
Cc1ccc(-c2nc3cc(Br)cnc3nc2-c2ccc(C)cc2)cc1 | 5%
CCOC(=O)N1CCN(c2c(N3CC=C(c4ccccc4)CC3)c(=O)c2=O)CC1 | 8%
Cc1occc1C(=O)N/N=C/c1ccccc1[N+](=O)[O-] | 10%
CCOc1cc(C(=O)NC(C)C2CC3CCC2C3)cc(OCC)c1OCC (centres undefined) | 4%
Next records follow.
SMILES | VDR inhibitor
N#Cc1ccc(OCC(=O)N/N=C2/CC(c3ccccc3)Oc3ccccc32)cc1 (centres undefined) | -13%
CC(C)N(Cc1nc(-c2ccccc2)no1)C(=O)c1ccc(Br)o1 | 8%
Cc1nn2c(N3CCOCC3)cc(C(C)(C)C)nc2c1-c1ccccc1 | -16%
O=C(NCc1ccncc1)C1CCCN(S(=O)(=O)Cc2ccccc2)C1 (centres undefined) | -12%
O=C(NCC(c1cccnc1)N1CCc2ccccc2C1)c1ccc(F)c(F)c1 (centres undefined) | -4%
CC(C)/C=C/C(=O)N1CCC(N2CCC(C(=O)N3CCOCC3)CC2)CC1 | 0%
CCOC(=O)CCc1c(C)c2ccc(OCC)c(C)c2oc1=O | 1%
O=C(Nc1sc2c(c1C(=O)O)CCC2)c1ccccc1F | -16%
CC1CCN(C(=O)c2cc3ccccc3cc2O)CC1 | 8%
CCOP(=O)(c1ccccc1)C(O)c1ccc(Br)cc1 (centres undefined) | -13%
O=C(NC1CCCc2ccccc21)C1CCN(C(=O)c2sccc2-n2cccc2)CC1 (centres undefined) | 3%
Cc1nnsc1C(=O)Nc1ccc(Cl)cc1 | -13%
Cc1ccc(-c2csc(Nc3ccc(C(=O)O)cc3)[n+]2Cc2ccccc2)cc1 | -6%
COc1ccc(NC(=O)O/N=C/c2ccccc2Cl)cc1 | ?
CCCN(CCC)C(=O)Cn1c(=O)n(-c2ccc(Cl)cc2)c(=O)c2c3c(sc21)CCCCC3 | -13%
Cc1c(C(=O)Nc2ccc(C(C)C)cc2)sc2nc[nH]c(=O)c12 | -14%
O=C(COC(=O)c1ccc(NS(=O)(=O)c2cccs2)cc1O)NCc1ccccc1 | 9%
COc1ccc(S(=O)(=O)N2CCN(Cc3cccc(OC)c3OC)CC2)cc1 | -2%
O=C(CCS(=O)(=O)c1cc(Br)cc2c1N(C(=O)C1CC1)CC2)N1CCN(c2cccc(C(F)(F)F)c2)CC1 | 5%
CC1Cc2ccccc2N1S(=O)(=O)c1cccc(C(=O)NCc2ccncc2)c1 (centres undefined) | -8%
Cc1cc2ncn(C3CC(=O)N(C)C3=O)c2cc1C (centres undefined) | -16%
CC1(C)CC(=O)c2cnc(NCC3CCCO3)nc2C1 (centres undefined) | 0%
N#C/C(=C/c1ccncc1)c1nc2ccccc2s1 | 71µM*
O=C(NC1CCCCC1)C(c1cccnc1)N(C(=O)c1csnn1)c1ccc(F)cc1 (centres undefined) | -16%
COc1ccc(-c2sc3ccccc3c2C#Cc2cncn2C)cc1 | -1%

Molecules above that contain two or more sulfur atoms:
SMILES | VDR inhibitor
COc1ccc(C(=O)Nc2nnc(S(=O)(=O)N(C)c3ccc(Cl)cc3)s2)cc1OC | -2%
O=C(Nc1ccccc1Br)C1CCCN1S(=O)(=O)c1cccc2nsnc12 (centres undefined) | -7%
CSc1ccc(S(=O)(=O)N2CCC(C(=O)Nc3ccc(NC(C)=O)cc3)CC2)cc1 | 12%
Cc1ccc(S(=O)(=O)Nc2ccc3c(c2)OCCO3)c(C)c1NS(C)(=O)=O | 30%
Cc1cc(C(=O)CCC(=O)NC(C)c2ccc(S(N)(=O)=O)cc2)c(C)s1 (centres undefined) | -14%
O=C(COC(=O)c1ccc(NS(=O)(=O)c2cccs2)cc1O)NCc1ccccc1 | 9%

Going on with the list:
SMILES | VDR inhibitor
COc1ccc(S(=O)(=O)N(Cc2ccc(OC)c(OC)c2)Cc2ccco2)cc1 | 7%
COc1ccc(Cl)cc1NS(=O)(=O)c1cc(Cl)ccc1OC | -12%
CC1CCC/C(=N\NC(=O)COc2ccc(Cl)cc2Cl)C1 (centres undefined) | 2%
O=c1[nH]c2ccc(S(=O)(=O)Nc3ccccc3O)cc2[nH]1 | -5%
Cc1c2n(c3ccccc13)CC/C2=N\O | 7%
Cc1ccc2oc(-c3ccc(C)c(NC(=O)c4ccc(N5CCC(C)CC5)c([N+](=O)[O-])c4)c3)nc2c1 | -18%
CCS(=O)(=O)c1ccc(O)c(Nc2cc(C)nc(SC)n2)c1 | 17%
CCCC(=O)c1c(NC(C)C)cc(C)oc1=O | 28%
O=C(CC(=O)c1ccccc1)CC(O)(C=Cc1ccccc1)c1ccccc1 (centres undefined) | -23%
Oc1c(Br)cc(Br)cc1/C=N/N1CCN(Cc2ccccc2)CC1 | 9%
CC(C)(C)NC(=O)[C@@H]1C[C@@H]2CCCC[C@@H]2CN1C[C@@H](O)[C@H](Cc1ccccc1)NC(=O)[C@H](CC(N)=O)NC(=O)c1ccc2ccccc2n1 | 0%&-13%&-3%
Cc1c(C(=O)NNC(=O)c2csc(N3CCOCC3)n2)cccc1[N+](=O)[O-] | -20%
CN(C)c1ccc(C(=O)/C=C/c2cccnc2)cc1 | -1%
CCOC(=O)NC(NC(=S)Nc1ccc(OCC)cc1)C(Cl)(Cl)Cl (centres undefined) | -22%
Cc1nnc(SCC(=O)Nc2c(Cl)cccc2Cl)[nH]c1=O | -6%
Cc1cccc2c(=O)oc(-c3ccccc3Cl)nc12 | 5%
O=C1CC2(CCCC2)C(=O)N1c1ccc(S(=O)(=O)NCC2CC2)cc1Cl | 7%
Cn1cc(S(=O)(=O)N2CCCC2)cc1C(=O)Nc1ccc(C(F)(F)F)cc1 | 13%
Cc1ccc(C(=O)Oc2ccccc2N2C(=O)C3CCC(C)CC3C2=O)cc1 (centres undefined) | 11%
CCC(C)OC1OC(CO)C(O)C(O)C1NC(C)=O (centres undefined) | -7%
Cc1ccc(C)c(N(CC(N)=O)S(C)(=O)=O)c1 | ?
O=C(OCCc1ccccc1)c1cc(O)c(O)c(O)c1 | -14%
O=C(NCCc1ccccc1)C1CCN(S(=O)(=O)c2ccc(-n3cnnn3)cc2)CC1 | 2%
CC(=O)c1cccc(NC(=O)C(C)OC(=O)c2cc(=O)[nH]c3ccccc23)c1 (centres undefined) | 2%
Fc1c(F)c(F)c(NC2=NCCCCC2)c(F)c1F | -11%
New compounds follow.
SMILES | VDR inhibitor
COc1ccc(C/C(C)=N/NC(=O)c2ccc(Cl)cc2)cc1 | 6%
CCOC(=O)N1CCN(C(=S)NC(=O)c2nn(C)cc2Br)CC1 | 7%
Cc1ccc(-c2nnc(N3CCN(CCO)CC3)c3ccccc23)cc1 | -12%
N=C1c2c(cc(=O)n3c2[nH]c2ccccc23)CN1CCN1CCOCC1 | 1%
Cc1noc(NS(=O)(=O)c2ccc(NC(=O)/C=C/c3ccc(Br)cc3)cc2)c1C | -2%
S=C1NCCOCCOCCOCCNC(=S)N2CCOCCOCCN1CCOCCOCC2 | 20%
Cc1cc(C(=O)c2ccc(C(C)(C)C)cc2)c(NC(=O)CCl)s1 | -5%
CCCN1CCC(NC(=O)Cc2cccc(C)c2)CC1 | 3%
O=C(NC1CCCCC1)C1CCCN(c2nnnn2-c2ccccc2)C1 (centres undefined) | -11%
CCn1c(COc2ccc(Cl)c(C)c2)nnc1SCC(=O)N1CCCC1 | 1%
O=C(CSCc1ccc(F)cc1)NCc1cccs1 | -14%
CCOC(=O)c1sc(Nc2nc3c(OC)cccc3s2)cc1C | 6%
COc1cc(CN(C(=O)c2ccco2)C2CCS(=O)(=O)C2)cc(OC)c1OC (centres undefined) | 24%
Cc1cc(NC(=O)CSc2nnnn2-c2ccccc2)no1 | 17%
Clc1ccc(CNc2ncnc3onc(-c4ccc(Cl)cc4)c23)cc1 | 0%
COc1ccc(NC(=O)c2ccc3ccccc3c2)cc1 | -1%
O=C(Oc1ccccc1)C1O[C@@H]1c1ccccc1 (some centres undefined) | -1%
Cc1ccc(C2=NC(C)(C)NC2=O)cc1 | -11%
COc1ccccc1N1CCN(S(=O)(=O)CCNC(=O)COc2ccc(C(C)C)cc2)CC1 | 19%
CC(C)(C)c1ccc(C2NC(=O)c3n[nH]c(-c4cccs4)c32)cc1 (centres undefined) | -10%
COc1ccc(C(=O)/C=C2/c3ccccc3CC(C)(C)N2C)cc1OC | 2%
Cc1cc(C)nc(NC(=O)NS(=O)(=O)Nc2ccc(Br)cn2)n1 | -18%
CNc1nnc(-c2ccco2)s1 | -7%
CC1CCCC(C)N1C(=O)Cn1nnc(-c2ccccc2)n1 (centres undefined) | 5%
N#CC1(c2ccccc2)CCC(=O)N1c1ccccc1 (centres undefined) | -6%
COc1ccc(/C=N/OCC(=O)N=Nc2c(O)[nH]c3ccc(Br)cc23)cc1OC | 8%
Cc1[nH]c2ccccc2c1-c1ccc(Cl)nn1 | 1%

Screens: PubChem BioAssay, National Center for Advancing Translational Sciences (NCATS)
